Screens: PubChem BioAssay, National Center for Advancing Translational Sciences (NCATS)
Cruzain inh Det: blocks cruzain activity in presence of Triton detergent; purified cruzain, Z-FR-AMC fluorescence, 0.01% Triton; hit rate 0.43% among 200,000; Potency, µM, for the others: max response, negative = inhibition, usual class: inhibitors; P25779; active = well fitted curve in the direction sought with a large enough effect; inconclusive = small, poorly fitted or top-dose-only effect, or another doubt; inactive = no such curve, though single readings can be large; an effect the other way counts as inactive or inconclusive;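 note: plate controls were neutral wells for no effect and buffer without enzyme for full effect; nearly all actives have a fitted effect of over 40% in size; top concentration of the series not given in the record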
Target sequence (P25779 123-467 limits assumed): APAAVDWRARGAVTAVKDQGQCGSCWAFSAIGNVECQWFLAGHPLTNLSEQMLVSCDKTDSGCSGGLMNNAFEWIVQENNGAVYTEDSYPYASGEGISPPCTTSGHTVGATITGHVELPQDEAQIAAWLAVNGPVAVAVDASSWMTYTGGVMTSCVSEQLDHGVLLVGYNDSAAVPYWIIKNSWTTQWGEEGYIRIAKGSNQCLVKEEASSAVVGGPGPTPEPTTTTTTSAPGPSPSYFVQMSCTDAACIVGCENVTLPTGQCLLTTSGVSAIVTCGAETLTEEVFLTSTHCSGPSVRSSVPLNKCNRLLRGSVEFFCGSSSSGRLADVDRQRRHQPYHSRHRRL
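Sodium acetate buffer (100 mM, pH 5.5) containing 5 mM DTT and 0.01% Triton X-100 hosted 1.5 nM cruzain and test compound for 15 min at room temperature. Cleavage of 2 uM Z-FR-AMC was then tracked by fluorescence.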
Lassa entry inh: blocks Lassa virus binding to or entry into cells; Lassa virus pseudotype entry inhibition, cell reporter; control for the full effect not named in the record; Potency, µM (titrated, usually from 37.9 µM), for inactives: top-dose activity change, negative = inhibition, hits mostly inhibitors; hit rate 1.2% among 300,000; active means well fitted inhibition curve with a large enough effect; inconclusive means small, poorly fitted or top-dose-only effect, or effect the other way; inactive means flat fitted curve, though single readings scatter; tested in HEK293 cells; note: % is set by controls: 0 for no effect and ±100 for the full control effect; nearly all actives have a fitted effect of over 50% in size; luciferase read-out
Cruzain inh noDet: inhibitors of Trypanosoma cruzi cruzain without detergent; purified cruzain, Z-FR-AMC fluorescence, no detergent; Potency, µM, without a hit: max response, negative = inhibition, hits mostly inhibitors; hit rate 2.3% among 200,000; AID 1476; active = well fitted curve in the direction sought with a large enough effect; inconclusive = small, poorly fitted or top-dose-only effect, or another doubt; inactive = no such curve, though single readings can be large; an effect the other way counts as inactive or inconclusive;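 note: plate controls were enzyme without inhibitor for no effect and buffer without enzyme for full effect; nearly all actives have a fitted effect of over 40% in size; top concentration of the series not given in the record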
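Purified cruzain at 1.5 nM, pre-incubated 15 min with compound at room temperature in 100 mM sodium acetate pH 5.5, 5 mM DTT, 0.00005% Triton X-100. Reaction started with 2 uM Z-FR-AMC; AMC fluorescence increase over 60 s gives rate.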
MARV entry inh: Marburg virus entry inhibition. Marburg virus pseudotyped entry inhibition, cell reporter; control for the full effect not named in the record; about a third of the inactives were read at about 46 µM. Potency, µM (doses to about 37.8 µM), for the others: at the top dose activity change, negative = inhibition, hits mostly inhibitors. hit rate 1.8% among 300,000; active = well fitted inhibition curve with a large enough effect; inconclusive = small, poorly fitted or top-dose-only effect, or effect the other way; inactive = flat fitted curve, though single readings scatter; tested in HEK293 cells; about a fifth of its hits are not listed in these tables; note: % is set by controls: 0 for no effect and ±100 for the full control effect; luciferase read-out
NS1 function inh: inhibitors of influenza NS1 protein function | S. cerevisiae slowed by influenza A NS1, growth recovery by OD600 | hit rate 0.4% among 270,000 | Potency, µM (doses to about 46.1 µM), for inactives: at the highest dose activity, positive = more growth; note: actives are rising curves; nearly all actives have a fitted effect of over 50% in size
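Recovery from NS1-induced slow growth read by OD600 in budding yeast switched to galactose assay medium (pH 6.0, -URA) at 1:100 dilution. Compound 23 nl per well; the matching strain lacking NS1 serves as control.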
SARS PLpro yeast: inhibitors of SARS-CoV papain-like protease in yeast | S. cerevisiae expressing SARS-CoV PLpro, growth rescue; control for the full effect not named in the record | Potency, µM (series often up to 32.9 µM), for the others: at the highest dose activity, positive = growth rescue | hit rate 0.19% among 330,000; note: 0% is about no effect; nearly all actives have a fitted effect of over 55% in size; growth read by luminescence after 48 h
StopGo reporter: lowers the luciferase signal of an FMDV 2A StopGo reporter; hit rate 1.2% among 410,000; Potency, µM (highest dose often 57.9 µM), inactives show top-dose signal change, negative = less light; human cells with a luciferase reporter of 2A StopGo recoding; control for the full effect not named in the record; AID 1159524; active = well fitted falling curve with a large enough effect; inconclusive = small, poorly fitted or top-dose-only effect; inactive = no such curve, though single readings can be large or run the other way; tested in HEK293T cells; note: % is set by controls: 0 for no effect and ±100 for the full control effect; nearly all actives have a fitted effect of over 45% in size; luciferase light after 4 h
RE007 growth inh: less growth of the S. pombe RE007 Vpr strain; Potency, µM (titrated, usually from 92.2 µM), for inactives: top-dose activity change, negative = less growth; AID 651644; hit rate 0.21% among 360,000; S. pombe RE007 Vpr strain, BacTiter-Glo ATP luminescence, 24 h; control for the full effect not named in the record; active = well fitted falling curve with a large enough effect; inconclusive = small, poorly fitted or top-dose-only effect; inactive = no such curve, though single readings can be large or run the other way;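 note: % is set by controls: 0 for no effect and ±100 for the full control effect; nearly all actives have a fitted effect of over 50% in size; the assay follows cell death caused by Vpr and the record does not say whether a fall means rescue or toxicity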
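Fission yeast RE007 carrying one integrated HIV-1 vpr copy, seeded at OD 0.01 in PMG+AL medium with 23 nL pinned compound. Grown 24 h at 30 degrees; viability read by BacTiter-Glo luminescence after 5 min.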
Active calls of the source: *; ? = inconclusive; . = no result given; & = joins results of further samples; [ ] = remark or other dose. Unless noted, calls come from the whole dose curve; as a rule, active means well fitted rising curve with a large enough effect; inconclusive means small, poorly fitted or top-dose-only effect; inactive means no such curve, though single readings can be large or run the other way. Potency is the fitted concentration of half-maximal effect. Compounds were not picked by outcome; overall some 4.7% were active at least once.

SMILES,NS1 function inh,Cruzain inh noDet,RE007 growth inh,StopGo reporter,Cruzain inh Det,SARS PLpro yeast,Lassa entry inh,MARV entry inh
Cc1ccc(Cn2cccc(NC(=O)CCC3CCCC3)c2=O)cc1,-56.8%,.,0.8%,?,.,-5.7%,?,?
CCN(CC)S(=O)(=O)c1cccc(-n2c(O)c(C=Nc3ccccc3C(=O)O)c3ccccc3c2=O)c1,4.4%,.,-1.2%,-10.8%,.,-1.2%,.,.
CCCn1c(=O)c2c(C(F)(F)F)cc(-c3ccco3)nc2n(CCC)c1=O,3.7%,3.7%,7.2%,.,5.8%,4.9%,-17.9%,7.5%
CC(Oc1ccccc1Cl)C(=O)N(Cc1cccs1)C1CCS(=O)(=O)C1 (configuration not stated),-4.5%,.,10.0%,?,.,7.8%,.,.
CC(C(=O)OCC(=O)c1ccc(F)cc1)N1C(=O)C2C3C=CC(C3)C2C1=O (configuration not stated),0.1%,.,0.5%,2.7%,.,-4.1%,-5.7%[46.1 µM],-7.3%[46.1 µM]
Cc1sc(NC(=O)COc2ccccc2)c(C#N)c1C,.,.,-10.9%,11.5%,.,-2.7%,-22.1%[46.1 µM],?
Cc1nn(CC(=O)NCCC2=CCCCC2)c(C)c1[N+](=O)[O-],.,.,-4.9%,-3.1%,.,3.9%,-7.3%,6.7%[46.1 µM]
O=C1c2ccccc2NC(c2ccccc2Br)N1CCCN1CCOCC1 (configuration not stated),12.6%,-3.1%,.,-18.4%,-1.9%,4.3%,-1.5%,-20.2%
CC1C(=O)c2ccccc2CC1C(=O)O (configuration not stated),.,.,5.0%,1.8%,.,.,0.0%[46.1 µM],1.8%[46.1 µM]
Cc1cccc(NC(=S)NCc2ccncc2)c1C,12.6%,0.5%,-10.2%,7.7%,-2.0%,-17.3%,-4.7%,-9.3%
COc1cc(/C=N/OCC(=O)Nc2cc(C)on2)ccc1OCc1ccccc1,-4.1%,2.2%,7.2%,27.8%,-0.1%,11.9%,-2.0%,-8.3%
CCC(C)(C)NC(=O)C(c1cccn1C)N(C(=O)Cn1nnc2ccccc21)c1ccc(F)cc1 (configuration not stated),-6.4%,?,19.2%,-12.0%,4.7%,-3.5%,1.0%,-5.0%&-5.0%
O=C(O)CCCC(=O)NCCCCc1ccccc1,-2.7%,17.3%,-0.3%,-6.0%,3.1%,8.8%,25.5%[14.3 µM],?
Cc1ccc(S(=O)(=O)N2CCN(C(=O)C(C)Cn3cncn3)CC2)cc1 (configuration not stated),-8.8%,.,-1.9%,-3.4%,.,16.2%,.,?
COc1ccccc1CNc1nc(-c2ccco2)nn1C(=O)c1ccccc1[N+](=O)[O-],.,?,.,-7.2%,-4.1%,.,11.3%[46.1 µM],13.8%[46.1 µM]
CC(C)(C)C(=O)Nc1ccc(N2CCN(S(C)(=O)=O)CC2)cc1,.,.,20.0%,14.4%,.,8.6%,?,10.2%[46.1 µM]
O=C(Cn1c(-c2ccc(Cl)cc2)noc1=O)N1CCN(c2ccccc2F)CC1,?,-2.2%,-9.3%,-6.8%,5.0%,-6.1%,-9.8%,-16.9%
COC(=O)CSc1nc(C(C)C)nc2ccccc12,-88.2%,10.9%,-3.9%,-23.3%,-4.1%,1.2%,9.0%,2.6%
COc1ccc2c(CNCc3cccs3)c(C(=O)O)n(Cc3ccc(F)cc3Cl)c2c1,.,9.7%,.,-0.3%,-5.6%,.,-10.1%[46.1 µM],.
CN(C(=O)c1ccc2c(=O)n3c(nc2c1)CCCCC3)c1ccccc1,-2.0%,1.3%,-1.3%,4.6%,-0.4%,4.1%,-20.0%,-17.6%
COc1ccc2c(COC(=O)CNC(=O)C34CC5CC(CC(C5)C3)C4)cc(=O)oc2c1,-1.4%,-2.1%,0.8%,16.5%,2.5%,4.5%,-0.1%,25.7%
COc1ccc(CNC(=O)CN(C(=O)c2snc(C(N)=O)c2N)c2ccc(OC)c(OC)c2)cc1,14.4%,.,-3.3%,4.2%,.,26.5%,.,2.2%[46.1 µM]
COc1ccccc1-n1c(SCC(=O)N2CCCCC2)nnc1-c1ccccc1O,-6.5%,5.3%,-6.0%,.,1.5%,3.3%,-22.3%,1.2%
CC(C(=O)NCCS(=O)(=O)c1ccc(Cl)cc1)S(=O)(=O)c1ccccc1 (configuration not stated),.,.,9.7%,2.5%,.,1.5%,5.2%[46.1 µM],9.7%[46.1 µM]
CC[C@H](C)[C@H](NC(N)=O)C(=O)Nc1ccccc1F,-1.1%,.,-6.8%,6.3%,.,3.0%,.,24.0%[46.1 µM]
COc1cc(/C=N/n2c(COc3ccccc3)n[nH]c2=S)cc(OC)c1OC(C)=O,6.2%,.,2.3%,17.2%,.,-0.4%,.,.
CCc1nc2ccccc2c(C(=O)OCC(=O)N(CC(C)C)c2c(N)n(Cc3ccccc3)c(=O)[nH]c2=O)c1C,.,.,-2.3%,-13.3%,.,0.0%,-4.0%,-19.6%
CC(=O)NCC(=O)N(c1ccccc1)C1(C(=O)NC2CCCCC2)CCCCC1,-2.6%,8.9%,-3.9%,-9.8%,0.3%,-6.0%,0.1%,-3.1%
CCCCN1C2CCC1CC(OC(c1ccc(F)cc1)c1ccc(F)cc1)C2 (configuration not stated),-33.0%,10.1%,.,.,-2.2%,.,.,3.55µM*
CCOC(=O)CNC(=O)c1cnn2cccnc12,2.5%,17.8%,13.0%,20.4%,4.9%,12.4%,0.6%,14.3%[46.1 µM]
Cc1cc(OCC(=O)NCc2nc(-c3ccccc3)no2)c(C)cc1Br,1.5%,-5.7%,8.8%,-25.5%,0.8%,1.9%,0.5%,-6.9%
CCOc1ccc(OCC)c(NC(=O)CCc2nc3cccnc3n2-c2ccccc2)c1,.,?,.,-19.5%,-5.1%,.,-5.3%[46.1 µM],1.6%[46.1 µM]
COc1cccc(C(=O)N(Cc2ccco2)Cc2cc3cccc(C)c3[nH]c2=O)c1,?,-6.3%,-16.0%,?,1.4%,8.0%,14.9%,-15.3%
Cc1cccc(NC(=O)C2CCCN(C(=O)Nc3ccccc3)C2)c1C (configuration not stated),0.2%,-3.7%,-10.5%,-22.6%,1.6%,3.8%,1.6%,18.3%
Cn1c(CNC(=O)c2ccccc2F)nnc1SCC(=O)Nc1nncs1,2.0%,.,-7.4%,-1.2%,.,-2.7%,8.0%,0.3%[46.1 µM]
COc1ccc(C(=O)Nc2nonc2-c2ccc(OC)c(OC)c2)cc1Cl,.,9.8%,.,-17.9%,-2.3%,.,18.1%[46.1 µM],-3.6%[46.1 µM]
O=C1C2C3C=CC(C2C(=O)N1CCO)C1C(=O)N(CCO)C(=O)C31 (configuration not stated),9.5%,.,-13.8%,-4.4%,.,-1.9%,.,.
COc1ccc(S(=O)(=O)N2CCN(c3ccc(Cl)c(Cl)c3)CC2)c2ccccc12,.,7.94µM*,.,-4.4%,-0.8%,.,1.2%[46.1 µM],?
COc1ccc(OC)c(C(=O)COC(=O)c2cccnc2SC)c1,.,.,-4.1%,1.8%,.,2.9%,9.6%,6.2%[46.1 µM]
NS(=O)(=O)c1ccc(NC(=S)NCc2cccs2)cc1,1.4%,.,19.6%,17.4%,.,-0.7%,-17.4%,-21.7%[46.1 µM]
O=C(Cn1cc(/C=N/NC(=O)c2ccccc2Br)c2ccccc21)Nc1ccc(F)cc1,10.8%,-2.4%,12.0%,-12.2%,-5.2%,3.9%,-2.3%,25.9%
COc1ccc(C2c3c(n(C)c4ccccc34)C(=O)N2CC(=O)Nc2c(C)cc(C)cc2C)cc1 (configuration not stated),.,?,.,-4.1%,-9.7%,.,-0.4%[46.1 µM],.
O=C(COc1ccc2ccccc2c1Br)NCc1ccccn1,-8.4%,.,?,13.7%,.,-1.0%,0.9%,?
COc1ccc(C(=O)NCCc2csc(-c3ccc(Cl)cc3)n2)c(OC)c1,.,?,.,?,-12.8%,.,-15.7%[46.1 µM],.
CC(NC(=O)C1CCCN(C(=O)N(C)C)C1)c1ccccc1 (configuration not stated),0.2%,-3.7%,1.9%,5.8%,0.1%,-1.6%,?,0.3%
Cc1csc(NC(=O)c2cccc([N+](=O)[O-])c2C(=O)O)n1,-2.1%,.,1.1%,6.0%,.,-1.1%,.,.
CCOc1ccc(NC(=O)CNc2ccc(C)cc2Cl)cc1,-59.3%,-0.5%,-2.6%,44.7%[activator],-9.3%,5.2%,4.1%,3.6%
Cc1cc(C)nc(Sc2nc(C)nc3c2oc2ccccc23)n1,-42.6%,-10.2%,2.7%,0.0%,-9.2%,-3.1%,?,-7.0%
CN(C)c1nc(OCC(=O)NC(C)(C)C)nc(N(C)C)n1,-3.2%,0.5%,-1.6%,-16.6%,1.8%,-2.2%,-5.0%,-4.0%[46.1 µM]
Cc1ccc(C)c(N2C(=O)C3C4C=CC(CC4)C3C2=O)c1 (configuration not stated),14.3%,.,-19.8%,-8.6%,.,1.7%,.,.
CCCCNC(=O)C1c2cc(OC)c(OC)cc2C(=O)N(C)C1c1ccc(OC)cc1 (configuration not stated),-9.0%,7.5%,0.0%,9.0%,2.4%,10.3%,-16.2%,15.2%&15.2%[46.1 µM]
Cc1ccc2oc(=O)n(CC(=O)OCCC(C)C)c2c1,0.5%,.,-7.7%,-11.0%,.,-5.3%,.,.
O=C(CSc1nnnn1-c1ccc(F)cc1)NCc1cccs1,-1.8%,.,10.5%,10.7%,.,1.2%,6.6%,14.0%
CCOC(=O)c1cc(S(=O)(=O)N2CCN(c3cc(Cl)ccc3C)CC2)[nH]n1,.,-0.9%,.,16.5%,-5.5%,.,2.0%[46.1 µM],.
COc1ccc(COC(=O)C2=C(C)NC(=O)NC2c2ccc(OC)c(OC)c2)cc1 (configuration not stated),16.2%,.,-2.4%,-13.5%,.,0.1%,.,.
C=CCC1(CN2CCCCCC2=O)C(=O)NC(=O)NC1=O,19.1%,5.1%,-16.3%,-12.0%,8.1%,.,1.2%,13.4%
CCc1ccc(-c2nc(CN3CCCC(C(=O)NCCc4ccc(OC)c(OC)c4)C3)c(C)o2)cc1 (configuration not stated),-8.7%,3.5%,-9.1%,22.4µM*,2.9%,-5.5%,?,?
